Source: PubChem (several laboratories)
Mtb growth – M. tuberculosis H37Rv growth inhibitors, H37Rv strain (AID 1626); M. tuberculosis H37Rv growth inhibition; higher % means a stronger effect; inhibition, % at 10 µM; hits with a dose series show IC50 in µM; 0.95% of 220,000 active;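 active means confirmed in a dose series; inconclusive means inhibition above 80% but not taken into the dose series; inactive means below 80% or under 30% at every dose of the series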;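 further: bacteria incubated seven days before Alamar blue readout; 0% = bacteria only wells and 100% = bacteria with antibiotic wells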
Mtb bLac sens – beta-lactam sensitization of Mtb H37Rv, H37Rv. M. tuberculosis H37Rv growth with meropenem, percent inhibition; hits of this screen are not shown here. inhibition, % at 25 µM. 0.27% of 330,000 active. AID 434955, 2010;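 active means about 74% or more and at least 40 points above the plate without the antibiotic, then above 30% in a dose series; inconclusive means first-round hits that could not be retested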;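 further: growth measured after seven days incubation then overnight dye step; 0% = bacteria only wells and 100% = bacteria with antibiotic; twin plates without the antibiotic show which effects depend on it; some results filed as inactive read as strong as hits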
Arbovirus inh – antivirals against arbovirus infection, primary screen, cell-based, full library, 10K replicate subset; 0.37% of 200,000 active; inhibition, % at 10 µM; arbovirus infection cell-based antiviral screen;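 active means inhibition from about 30%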;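 further: bluetongue infection of BSR cells; cell survival read as ATP light after 72 h; 0% = infected wells without compound and 100% = uninfected wells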
RecA splice inh – Mtb RecA intein splicing inhibitors, primary screen, biochemical, fluorescence, HTS; Protein RecA (Mycobacterium tuberculosis (strain ATCC 25618 / H37Rv)), P9WHJ3; cell-free RecA intein splicing; inhibition, %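 (about 9 µM by stock and volumes)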; 0.75% of 290,000 active; in the data active means inhibition above about 30%; inconclusive means no clear call, values can overlap the other calls;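 further: 0% = vehicle wells and 100% = reference inhibitor control wells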
Target sequence (P9WHJ3 whole entry, looked up, canonical isoform): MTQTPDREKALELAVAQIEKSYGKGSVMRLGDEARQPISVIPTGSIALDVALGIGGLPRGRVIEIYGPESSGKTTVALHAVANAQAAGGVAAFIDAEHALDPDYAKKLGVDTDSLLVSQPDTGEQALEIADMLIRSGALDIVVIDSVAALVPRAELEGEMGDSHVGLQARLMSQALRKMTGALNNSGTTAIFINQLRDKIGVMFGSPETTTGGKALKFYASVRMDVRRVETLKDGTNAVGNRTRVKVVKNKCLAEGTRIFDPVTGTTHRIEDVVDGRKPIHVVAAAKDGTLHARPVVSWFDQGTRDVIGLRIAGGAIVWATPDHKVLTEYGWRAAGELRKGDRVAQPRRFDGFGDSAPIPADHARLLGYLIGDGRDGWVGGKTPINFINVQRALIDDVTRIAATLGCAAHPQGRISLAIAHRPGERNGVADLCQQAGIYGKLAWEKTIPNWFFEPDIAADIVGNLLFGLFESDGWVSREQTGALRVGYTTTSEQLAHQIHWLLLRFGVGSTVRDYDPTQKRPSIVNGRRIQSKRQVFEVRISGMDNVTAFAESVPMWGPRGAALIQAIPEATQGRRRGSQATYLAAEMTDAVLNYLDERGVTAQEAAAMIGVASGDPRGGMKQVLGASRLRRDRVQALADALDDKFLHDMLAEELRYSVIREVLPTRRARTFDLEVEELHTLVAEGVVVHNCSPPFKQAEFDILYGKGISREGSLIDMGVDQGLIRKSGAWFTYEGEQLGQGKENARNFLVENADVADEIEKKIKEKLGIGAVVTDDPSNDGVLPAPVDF
YopH inh – YopH tyrosine phosphatase inhibitors, primary screen, biochemical, fluorescence Ex485/Em525; YopH tyrosine phosphatase [Yersinia enterocolitica]; AID 898, 2007; inhibition, %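 (about 10 µM by stock and volumes)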; 0.16% of 140,000 active;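 active means inhibition of 50% or more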;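 further: controls were vehicle for no effect and minimum signal wells for full effect; inactives centre near -20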
Arbovirus inh repeat – recorded beside Arbovirus inh, whose call it bears; inhibition, %; measured here: 10K subset replicate screen; many hits read low in the repeat;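 first of two repeat runs on a subset; 0% = infected and 100% = uninfected wells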
* = called active by the depositor; ? = inconclusive; / = not tested or not shown.

SMILES	Mtb growth	Mtb bLac sens	Arbovirus inh	RecA splice inh	YopH inh	others
COc1cc(C2c3c(n[nH]c3C)C(=O)N2c2ccc(C)cc2)ccc1O (centres undefined)	-2%	-5	0	10	-33
O=C(Cn1nc(C(F)(F)F)cc1C1CC1)NCc1ccccc1F	-1%	1	-6	1.2	-26
COC(=O)CCCC1=CC2=C(c3ccccc3)C(=O)C(C)(OC(=O)C3CCCC3)C(=O)C2=CN1Cc1ccc(OC)cc1 (centres undefined)	7%	-8	/	22	/
COc1ccccc1C(CNC(=S)NCc1ccccc1)N1CCCC1 (centres undefined)	4%	-5	19	0.2	/
COC(=O)c1ccccc1NC(=O)CCc1ccccc1	3%	-2	3	-0.7	-31
CC1(c2ccc([N+](=O)[O-])cc2)NC(=O)N(CC(=O)Nc2ccc(N3CCCCC3)cc2)C1=O (centres undefined)	/	-1	/	-2.4	/
Cc1ccc(F)c(C2C3C=CCC(c4cccc(-c5ccc(N(C)C)cc5)c4)C3C(=O)N2Cc2ccccc2)c1 (centres undefined)	0%	-8	/	21	/
CC(=O)Nc1ccc(N2CCN(C(C)=O)CC2)cc1	-13%	4	7	-0.1	-12
Cc1cnc(NC(=O)C2CCCC2)s1	-6%	-5	-5	/	-20
O=C(O)c1cc2nc(-c3ccc(F)cc3)cc(C(F)(F)F)n2n1	0%	-6	13	-1.1	-45
CCOc1ccc(-c2cccc(NS(=O)(=O)c3cc([N+](=O)[O-])ccc3Cl)c2)nn1	/	-15	/	5.4	/
COc1ccc(NC(=O)COc2ccc(/C=C/c3cc[n+](C)cc3)cc2OC)cc1	/	2	/	5.9	/
Clc1ccccc1/C=N/c1cc(-c2ccccc2)nn1-c1ccccc1	-7%	?	-3	0.1	-35
Cc1ccc(S(=O)(=O)n2ccc(-c3cccc(OCc4c(F)cccc4Cl)c3)n2)cc1	-7%	22	12	-1.9	-35
C/C(=N\Nc1ccccn1)c1ccc(C#N)cc1	9%	-3	-3	7.5	/
O=C(O)CCCCCCCCCC[n+]1ccccc1	11%	-3	/	-0.7	/
CCN(CC)C(=O)c1cc(C(C)(C)C)c(O)c(C(C)(C)C)c1	-1%	11	4	8.2	-16
O=C(N/N=C/c1coc2ccccc2c1=O)c1cc(Br)ccc1O	/	-19	/	-1.1	/
C/C(=N\NC(=O)CCCNc1ccccc1)c1ccncc1	0%	-2	1	-6.2	/
c1ccc2c(c1)ccc1nnc(-c3ccc4c(c3)OCO4)n12	-3%	-6	-1	-2.1	-22	Arbovirus inh repeat=-1
CCOC(=O)c1cnc(-c2ccccc2)[nH]c1=O	-2%	8	5	0.1	-47
O=C(O)C(Cc1ccccc1)NC(=O)C(c1ccccc1)c1ccccc1 (centres undefined)	/	0	/	3.2	/
O=C(O)C1CCN(C(=O)CCN2C(=O)S/C(=C\c3ccccc3)C2=O)CC1	/	-2	/	0.4	/
Cc1ccc(NC(=O)c2ccc(-n3cncn3)c([N+](=O)[O-])c2)cc1F	/	-12	/	-9.8	/
Cc1ccc(NNC(=O)c2ccno2)c(C)c1	-2%	43	/	-3.9	/
Cc1nc(NC(C)(C)CO)c([N+](=O)[O-])cc1[N+](=O)[O-]	2%	3	15	-0.4	-1
Cc1c(/C=N/NC(=O)c2cccnc2)cc(C#N)n1C	4%	0	2	/	/
O=C(COC(=O)c1ccc(NS(=O)(=O)c2ccc(F)c(F)c2)cc1)NCC1CCCO1 (centres undefined)	-4%	1	6	-0.5	/
CC1CCCC(C)N1C(=O)COc1ccc(C(=O)Nc2ccccc2N2CCOCC2)cc1 (centres undefined)	2%	-8	9	0.8	/
COc1ccc(CNC(=O)N2CCN(c3ccccc3)CC2)cc1	/	-3	/	-1.8	/
O=C(CN(C(=O)c1csnn1)c1ccc(Br)cc1)NC1CCCCC1	/	4	/	0.5	/
O=C(c1ccc(F)cc1)c1cn(Cc2ccc(F)cc2)c2cc3c(cc2c1=O)OCCO3	/	1	5	0.5	-30
O=C(COC(=O)c1cc(S(=O)(=O)N2CCc3ccccc3C2)ccc1Cl)NCc1ccco1	-4%	-7	2	16	-19
O=C(Nc1ccc(N=Nc2ccccc2)cc1)c1ccccc1Cl	8%	1	-7	0.2	-36
O=C1C2C(c3ccccc3)CC=CC2[C@H](c2ccc(C(F)(F)F)cc2)N1Cc1ccccc1 (some centres undefined)	18%	-1	/	17	/
Cc1c(C(Nc2ccccn2)c2ccc(Cl)cc2)c(=O)n(-c2ccccc2)n1C (centres undefined)	-9%	-6	5	-1.0	-92
O=C(N[C@@H]1C[C@H]2CC[C@@H]1C2)c1ccco1	/	3	/	-3.3	/
C/C(CC(=O)NC(C)C)=N\NC(=O)C(c1ccccc1)c1ccccc1	1%	0	14	1.9	/
CCS(=O)(=O)N1CCC(C(=O)Oc2ccc(Br)cc2)CC1	/	6	/	2.0	/
CCOC(=O)c1c(NC(=O)CCC(=O)N(CC)CC)sc2c1CC(C)(C)OC2	3%	-8	/	1.6	/
COc1ccc(NC(=O)c2ccccc2C(=O)N2CCCCC2)cc1	86%	33	5	-0.5	/
COc1cc(-c2noc(C)c2/C=C/c2ccc(C(=O)O)cc2)cc(OC)c1OC	/	-10	/	-0.1	/
COc1cccc(C2/C(=C(\O)c3ccc4c(c3)OCCO4)C(=O)C(=O)N2CCCn2ccnc2)c1 (centres undefined)	/	-6	/	1.4	/
O=C(NNS(=O)(=O)c1ccccc1)c1sccc1-n1cccc1	-5%	6	8	-3.3	-49
COc1ccccc1OCCCn1c(=O)sc2ccccc21	8%	12	0	4.0	-47

Next section (3 carried over from the part before).
SMILES	Mtb growth	Mtb bLac sens	Arbovirus inh	RecA splice inh	YopH inh	others
COc1cccc(C2/C(=C(\O)c3ccc4c(c3)OCCO4)C(=O)C(=O)N2CCCn2ccnc2)c1 (centres undefined)	/	-6	/	1.4	/
O=C(NNS(=O)(=O)c1ccccc1)c1sccc1-n1cccc1	-5%	6	8	-3.3	-49
COc1ccccc1OCCCn1c(=O)sc2ccccc21	8%	12	0	4.0	-47
Cc1cc(C(=O)NC2CCN(Cc3ccccc3)CC2)n[nH]1	/	-2	/	-2.0	/
CCNC(=S)NNC(=O)c1cccn(Cc2ccc(Cl)cc2)c1=O	/	8	-5	-0.9	-41
O=C(c1nc2ccccn2c1CNCCCn1nnc2ccccc21)N1CCOCC1	9%	-4	7	-1.9	/
C/C(CC(=O)NC1CCCCCC1)=N\NC(=O)c1cnccn1	-6%	1	4	-2.4	-12
O=C(O)C(C(=O)/C=C/c1ccco1)=C1SCCS1	8%	1	3	-0.7	-2
COc1ccc(C(=O)COC(=O)CN2C(=O)C3C4C=CC(C5CC45)C3C2=O)cc1 (centres undefined)	2%	-11	3	-6.0	-21
COc1ccc(CCNC(=O)CSc2nc(=O)n3cccc(C)c3n2)cc1OC	/	-6	/	-0.4	/
COc1cc(OC)cc(C(=O)NC(=S)Nc2nc(-c3cc4ccccc4o3)cs2)c1	-4%	-7	/	-2.0	/
COc1ccc(Cl)cc1N(CC(=O)NC(C)(C)C)S(=O)(=O)c1ccc(C)c([N+](=O)[O-])c1	13%	-6	22	0.2	-1
Cc1cccc2c1cnn2C(=O)Nc1cc(F)ccc1F	/	5	/	3.1	/
CC(C)OC(=O)c1c(NC(=O)Cn2cnc([N+](=O)[O-])n2)sc2c1CCCC2	-3%	-2	-4	/	-9
Cc1ccc(CNC(=O)CC(C)S(=O)(=O)c2ccc3c(c2)NC(=O)C(C)S3)cc1 (centres undefined)	/	1	/	-0.2	/
COc1cc(C(=S)N2CCOCC2)ccc1OC(=O)c1ccccc1[N+](=O)[O-]	/	0	/	0.4	/
O=C(CCS(=O)(=O)c1ccc(Br)s1)NC1CCCCCC1	0%	-1	-3	0.4	-7
COc1ccc(C(CC(=O)c2ccccc2)CC(=O)c2ccccc2)cc1OC	8%	1	6	6.9	/
COc1ccccc1[C@@H]1C(c2cccc(C)c2)=NN(c2ccccc2)[C@H]1C(=O)N1CCOC1=O	-6%	-3	-11	-44	-5
O/N=C/c1ccccc1OCc1ccccc1F	-4%	1	-11	1.8	-23
COc1cc(CNc2ccccc2SC)cc(OC)c1OC	7%	3	0	18	-56
CN(Cc1cc(=O)[nH]c2ccccc12)C(=O)c1ccccc1	/	/	5	-0.7	-36
COc1ccc(NC(=O)c2ccc(C)cc2)c[n+]1[O-]	/	5	/	0.3	/
O=C(O)CSc1nc2ccccc2n1-c1ccccc1	-10%	-9	-4	-0.3	/
COc1ccc(C2CC(C)(c3ccc(OC)cc3OC)Nc3ccccc3N2)c(OC)c1 (centres undefined)	5%	58	2	2.6	/
CCSc1nc2c(c(=O)[nH]c(=O)n2C)n1C/C=C(/C)Cl	-3%	-5	4	/	-35
O=C(NNC(=O)c1ccc(O)cc1O)c1ccc(Cl)cc1	-7%	7	-15	-6.8	-4
CCOC(=O)C(C(=O)OCC)C(=O)c1cc(OC)c(OC)c(OC)c1	8%	-9	4	-0.5	-7
CCOC(=O)C1=C(C)Nc2nnnn2C1c1cccnc1 (centres undefined)	8%	-4	-1	-1.0	-5
NC(=O)CC[C@@H]1NC(=O)[C@H](Cc2ccc(O)cc2)NC(=O)c2cc([N+](=O)[O-])cc(F)c2OCC[C@@H](C(N)=O)NC1=O	-3%	-1	0	-1.8	-29
COCCNC(=S)N(c1ccccc1)C(C)C	0%	5	-3	1.8	/
COc1ccc(Cl)cc1S(=O)(=O)n1cnc2ccccc21	-1%	-11	7	2.2	-23
CCOC(=O)C1CCCN(C(=O)COc2ccc(N(C)S(=O)(=O)c3ccc(F)cc3)cc2)C1 (centres undefined)	-7%	-8	8	0.8	/
CCOC(=O)c1nc(N)c(=O)n(-c2ccc(C)cc2)n1	-15%	-2	1	/	-28
CCCc1nc2ccccc2c(C(=O)OC(C)C(=O)NCc2ccc3c(c2)OCO3)c1CC (centres undefined)	14%	-1	-14	12	-16
O=[N+]([O-])c1ccc(NCc2ccncc2)cc1	/	4	/	0.1	/
O=C1S/C(=C\c2ccc(N3CCOCC3)o2)C(=O)N1c1ccccc1	-5%	48	-3	-14	/
O=C(NCc1cccnc1)C1CCCN(S(=O)(=O)c2ccccc2)C1 (centres undefined)	-11%	-2	4	3.6	36
Cc1cc(C)cc(NC(=O)COC(=O)c2n[nH]c3ccccc23)c1	4%	7	-3	1.7	/
COc1ccc(OC)c(C2Nc3c(Cl)ccc(C(=O)O)c3C3C=CCC32)c1 (centres undefined)	-2%	3	-6	6.6	/
Cc1cccc(C)c1OCCCn1ccnc1	/	-4	/	-3.1	/
Cc1ccc(S(=O)(=O)CCSc2ccc(C(F)(F)F)cn2)cc1	-10%	-4	/	0.3	/
O=C(O)CCCC(=O)Nc1ccc(Cl)c(Cl)c1	-8%	39	8	1.0	-5	Arbovirus inh repeat=2

In the list so far, 13 have fluorine:
SMILES	Mtb growth	Mtb bLac sens	Arbovirus inh	RecA splice inh	YopH inh	others
O=C(Cn1nc(C(F)(F)F)cc1C1CC1)NCc1ccccc1F	-1%	1	-6	1.2	-26
Cc1ccc(F)c(C2C3C=CCC(c4cccc(-c5ccc(N(C)C)cc5)c4)C3C(=O)N2Cc2ccccc2)c1 (centres undefined)	0%	-8	/	21	/
O=C(O)c1cc2nc(-c3ccc(F)cc3)cc(C(F)(F)F)n2n1	0%	-6	13	-1.1	-45
Cc1ccc(S(=O)(=O)n2ccc(-c3cccc(OCc4c(F)cccc4Cl)c3)n2)cc1	-7%	22	12	-1.9	-35
Cc1ccc(NC(=O)c2ccc(-n3cncn3)c([N+](=O)[O-])c2)cc1F	/	-12	/	-9.8	/
O=C(COC(=O)c1ccc(NS(=O)(=O)c2ccc(F)c(F)c2)cc1)NCC1CCCO1 (centres undefined)	-4%	1	6	-0.5	/
O=C(c1ccc(F)cc1)c1cn(Cc2ccc(F)cc2)c2cc3c(cc2c1=O)OCCO3	/	1	5	0.5	-30
O=C1C2C(c3ccccc3)CC=CC2[C@H](c2ccc(C(F)(F)F)cc2)N1Cc1ccccc1 (some centres undefined)	18%	-1	/	17	/
Cc1cccc2c1cnn2C(=O)Nc1cc(F)ccc1F	/	5	/	3.1	/
O/N=C/c1ccccc1OCc1ccccc1F	-4%	1	-11	1.8	-23
NC(=O)CC[C@@H]1NC(=O)[C@H](Cc2ccc(O)cc2)NC(=O)c2cc([N+](=O)[O-])cc(F)c2OCC[C@@H](C(N)=O)NC1=O	-3%	-1	0	-1.8	-29
CCOC(=O)C1CCCN(C(=O)COc2ccc(N(C)S(=O)(=O)c3ccc(F)cc3)cc2)C1 (centres undefined)	-7%	-8	8	0.8	/
Cc1ccc(S(=O)(=O)CCSc2ccc(C(F)(F)F)cn2)cc1	-10%	-4	/	0.3	/

This is a subset; count on the stated rates, not on these rows.
